# Screening results as filed in PubChem.
# gsp antagonist: gsp mutant antagonism. actives 0.4% (n = 340,000). gsp-mutant cells, cAMP HTRF, 30 min; control for the full effect not named in the record. AID 624288. Potency, µM (series often up to 76.9 µM), for the others: top-dose activity change, negative = inhibition, most hits filed as inhibitors; active = falling curve of any shape with a large fitted effect; inconclusive = falling curve, mostly with a smaller effect; inactive = flat or rising curve; cell line not stated here;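 further: intracellular cAMP measured with PDE inhibitor Ro 20-1724 present during compound exposure; potency means the concentration at half of the fitted maximal effect; on the % scale 0 is the no-effect control and ±100 the full control effect; nearly all actives have a fitted effect of over 65% in size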
#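 HTRF cAMP read-out (cAMP-d2 plus anti-cAMP antibody-K in lysis buffer, 30 min RT). Before lysis, cells are exposed to compounds with […] for 30 min at 37C in DPBS containing Ca/Mg, BSA and Tween 20.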
# TRPV1 PAM: enhances activation of the human vanilloid receptor TRPV1; Q8NER1; potentiation, % at 8.33 µM; TRPV1-expressing cells, Fluo-8 calcium influx, capsaicin EC20 potentiation; host cell line not named in the record; control for the full effect not named in the record; actives 0.02% (n = 320,000); active means potentiation above 80%; inconclusive means 30% to 80%; inactive means below 30%; further: 0% is about no effect
#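 TRPV1-expressing cells were cultured overnight at 35.5C and loaded with Fluo-8 calcium dye for 40 to 90 min at room temperature. After a 10 s baseline, compound was added and calcium influx was read kinetically for 3 min (ex 480/em 520 nm).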
# Menin-MLL FL inh: inhibitors of human menin-MLL interaction, wild-type MLL peptide; FP activity change, % at 61.4 µM; Fluorescence polarization, fluorescein-MLL peptide displacement from menin; 290,000 tested, under 10 active; AID 1766; inconclusive = falling polarisation curve, or a change in total fluorescence; inactive = total fluorescence flat and polarisation flat or rising; no compound was filed as active; the % refers to the polarisation; negative = inhibition;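 further: % of control where 0% means no effect; inhibitors lower the polarisation; unlabelled MLL peptide was the positive control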
# ClpP mod: qHTS Assay for Activators of ClpP. actives 1.9% (n = 340,000). purified B. subtilis ClpP, FRET peptide cleavage, 20 min. Potency, µM (doses to about 57.5 µM), for the others: at the top dose activity change, negative = active. ATP-dependent Clp protease proteolytic subunit (Bacillus subtilis (strain 168)), P80244; active = well fitted falling curve with a large enough effect; inconclusive = small, poorly fitted or top-dose-only effect; inactive = no such curve, though single readings can be large or run the other way; further: potency means the concentration at half of the fitted maximal effect; the source files actives as falling curves though it sought activators and does not explain the sign; nearly all actives have a fitted effect of over 65% in size; many hits overshoot -100%
# Target sequence (P80244 whole entry, looked up): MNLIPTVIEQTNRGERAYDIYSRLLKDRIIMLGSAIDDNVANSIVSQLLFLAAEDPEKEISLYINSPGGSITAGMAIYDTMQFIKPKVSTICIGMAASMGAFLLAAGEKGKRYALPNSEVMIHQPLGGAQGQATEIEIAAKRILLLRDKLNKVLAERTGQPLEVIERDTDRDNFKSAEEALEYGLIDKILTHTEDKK
#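 Purified B. subtilis ClpP, 10 microg/mL final in Tris/HCl pH8 with KCl, BSA, glycerol and Tween-20, cleaved an Abz/nitrotyrosine-quenched decapeptide. Fluorescence (ex 320, em 430) was read at 0 and 20 min at room temperature. Delta was normalized to 5.8 microM ADEP and DMSO/no-enzyme controls.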
# TRPML1 inh: human mucolipin-1 channel inhibition; Q9GZU1; TRPML1-inducible cells, Ca2+ dye fluorescence, FDSS; hits give low values; inhibition of EC80 agonist-evoked calcium signal; activity change, negative = inhibition, % (test concentration not listed); actives 0.02% (n = 390,000); in the data active means activity change below about -50%; inconclusive means about -30% to -50%; inactive means above about -30%;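 further: stimulus is agonist 54-4 at its EC80 concentration; on the % scale 0 is the no-effect control and ±100 the full control effect; compound concentration not given in the record; the text of the record puts the active cut at -80%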
# Target sequence (Q9GZU1 whole entry, looked up): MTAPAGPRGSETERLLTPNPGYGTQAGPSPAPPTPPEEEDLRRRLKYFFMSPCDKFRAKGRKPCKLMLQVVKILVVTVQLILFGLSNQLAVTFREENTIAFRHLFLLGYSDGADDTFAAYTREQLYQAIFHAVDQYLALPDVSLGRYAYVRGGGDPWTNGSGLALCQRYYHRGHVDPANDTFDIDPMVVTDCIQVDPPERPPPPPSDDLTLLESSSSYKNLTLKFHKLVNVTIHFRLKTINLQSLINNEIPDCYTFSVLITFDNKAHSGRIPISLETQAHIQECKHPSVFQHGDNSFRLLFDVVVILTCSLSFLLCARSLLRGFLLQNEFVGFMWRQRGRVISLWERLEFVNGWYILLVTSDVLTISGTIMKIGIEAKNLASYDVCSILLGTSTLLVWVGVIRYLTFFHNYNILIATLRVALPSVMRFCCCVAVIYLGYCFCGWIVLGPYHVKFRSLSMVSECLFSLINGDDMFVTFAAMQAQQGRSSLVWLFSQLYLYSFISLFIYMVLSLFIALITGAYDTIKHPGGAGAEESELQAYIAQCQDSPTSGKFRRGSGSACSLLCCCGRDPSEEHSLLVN
#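 TRPML1-DL cells, Tet-induced overnight (~16 h, 37 °C) at 1,500 cells/well, were loaded with Ca8 no-wash dye plus quencher for 45-90 min at room temperature. Compounds were pinned during FDSS kinetic reading; agonist 54-4 at EC80 (4 uM final) then added.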
# gsp agonist: gsp mutant agonism; actives 0.13% (n = 340,000); Potency, µM (highest dose often 76.9 µM), for inactives: top-dose activation (cAMP increase), hits mostly activators; AID 624287; gsp mutant cells, cAMP HTRF, 30 min; control for the full effect not named in the record; active = well fitted activation curve with a large enough effect; inconclusive = small, poorly fitted or top-dose-only effect, or another doubt; inactive = no such curve, though single readings can be large or run the other way; cell line not stated here;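 further: phosphodiesterase inhibitor Ro 20-1724 added with compounds to block cAMP breakdown; potency means the concentration at half of the fitted maximal effect; nearly all actives have a fitted effect of over 60% in size; about a fifth of the inactives were tested at one dose only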
#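 Cells stably selected in G418 were plated at 2000/well, grown 16-24 hr, then given compounds in DMSO with the PDE inhibitor […] (300 uM solution added) for 30 min at 37C; cAMP was read by HTRF.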
# Sfp PPTase inh: inhibitors of Bacillus subtilis Sfp phosphopantetheinyl transferase. Potency, µM, for inactives: max response, negative = inhibition, hits mostly inhibitors. AID 1490. Biochemical Sfp PPTase activity, qHTS. actives 3.5% (n = 310,000); active means well fitted inhibition curve with a large enough effect; inconclusive means small, poorly fitted or top-dose-only effect, or another doubt; inactive means no such curve, though single readings can be large or run the other way;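 further: the enzyme is Sfp with the accession as filed and its product quenches rhodamine fluorescence; potency means the concentration at half of the fitted maximal effect; 0% = enzyme reaction without inhibitor and -100% = no enzyme wells; top concentration of the series not given in the record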
#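 Reaction rates are the 30-min fluorescence difference (ex 525, em 598 nm) in wells containing 15 nM Sfp, 5 uM rhodamine-CoA and 12.5 uM BHQ-2-YbbR at pH 7.6 with 10 mM MgCl2.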
# * hit, by the source's call; ? = inconclusive; . = no result given; [ ] = remark or other dose.
1) O=S(=O)(c1ccc2ccccc2c1)N1CCN(C2Cc3ccccc3C2)CC1
2) COc1cccc2sc(N(C)c3ccccc3)nc12
3) COc1cc(C(=O)Nc2cc3c(cc2N2CCCCC2)n(C)c(=O)n3C)cc(OC)c1OC
4) Cc1sc(NC(=O)CN(C(=O)c2ccccc2F)C2CCCC2)c(C(N)=O)c1C
5) Cn1ccnc1C(=O)c1ccccc1Cl
6) CCN1CCN(c2nc3c(c(=O)[nH]c(=O)n3C)n2CCCc2ccccc2)CC1
7) COc1cc(OC)c(C(=O)OC(C)C(=O)Nc2cc(C(F)(F)F)ccc2Cl)cc1OC (stereo not drawn)
8) CCOC(=O)c1sc(=S)n(-c2ccccc2)c1N(C(C)=O)C(C)=O
9) O=C(Nc1ccc(Cl)cc1)Nc1nnc(SCc2ccc(Cl)cc2)s1
10) Cc1ccc(OCC(=O)Nn2c(C)nc3ccccc3c2=O)c(C(C)C)c1
screen / no.,1,2,3,4,5,6,7,8,9,10
gsp antagonist,-1.7%,4.6%,6.7%,-17.5%,-15.6%,-6.2%,-5.0%,0.0%,9.2%,?
TRPV1 PAM,6.1,9.4,-10.1,6.7,-2.8,-1.3,7.5,-18.2,-13.7,-0.8
Menin-MLL FL inh,0.3,1.4,-0.8,-4.5,-1.1,-1.0,10.1,0.1,1.2,2.1
ClpP mod,-3.1%,1.7%,-4.4%,2.0%,0.6%,.,-20.6%,.,0.2%,0.7%
TRPML1 inh,-1.9,7.6,-4.3,-8.6,11.5,-1.9,14.4,15.9,-7.1,-13.3
gsp agonist,1.5%,-8.2%,-38.1%[inhibitor],16.3%[15.4 µM],18.8%[15.4 µM],-3.8%[15.4 µM],0.0%[15.4 µM],-2.2%[15.4 µM],43.2%,-3.7%
Sfp PPTase inh,-27.2%,70.8µM*,1.7%,2.8%,10.9%,13.8%,-7.7%,17.8%,1.8%,11.8%

# Results in sequence from the entries so far:
# Menin-MLL FL inh, entries 4–8: -4.5, -1.1, -1.0, 10.1, 0.1
# TRPV1 PAM, entries 4–8: 6.7, -2.8, -1.3, 7.5, -18.2

# Later entries:
11) O=C1C2CCCN2C(c2ccc(F)cc2)N1c1nccs1 (stereo not drawn)
12) CC(=O)c1ccc(NS(=O)(=O)Cc2ccc(Cl)cc2)cc1
13) O=S(=O)(c1ccc(=S)[nH]c1)N1CCOCC1
14) CCOC(=O)c1sc(N(Cc2ccccc2)C(=O)CSc2ncn[nH]2)nc1C
15) O=C1Nc2ccccc2C1(O)Cc1ccncc1 (stereo not drawn)
16) COc1cc(C2CC(=O)c3c([nH]c(C(=O)OCCOC(C)C)c3C)C2)cc(OC)c1OC (stereo not drawn)
17) Cc1cc(NC(=O)c2cc(-c3ccc(C)s3)nc3ccccc23)no1
18) O=C(C1CCCCC1)N1CCN=C1SCc1cccc([N+](=O)[O-])c1
19) CS(=O)(=O)c1ccc2nc(NC(=O)c3ccccc3)sc2c1
20) O=C(c1cc(-c2ccc(Br)cc2)n[nH]1)N1CCN(C(=O)c2ccccc2Br)CC1
screen / no.,11,12,13,14,15,16,17,18,19,20
gsp antagonist,14.9%,-6.8%,17.6%,?,1.5%,?,-7.2%,-3.5%,-10.8%,-20.8%
TRPV1 PAM,8.2,-1.1,-2.8,2.2,-25.8,6.0,-2.6,-0.6,-1.6,2.6
Menin-MLL FL inh,1.0,0.5,.,2.2,2.7,-2.2,-3.2,-1.5,2.8,-0.2
ClpP mod,-1.6%,-9.8%,1.1%,4.1%,-6.6%,-3.7%,5.2%,-2.0%,1.3%,-1.7%
TRPML1 inh,-1.7,7.2,21.0,-0.1,25.7,28.0,25.3,32.5,2.4,-5.9
gsp agonist,2.5%,-25.6%,2.2%,-19.7%,-34.3%[inhibitor],3.8%,16.6%,-4.7%[15.4 µM],-0.8%[15.4 µM],-22.2%
Sfp PPTase inh,?,14.9%,.,16.8%,12.9%,3.7%,13.8%,4.7%,15.1%,-0.7%

# 12 of these compounds, reformatted:
# Results follow in this order: gsp antagonist | TRPV1 PAM | Menin-MLL FL inh | ClpP mod | TRPML1 inh | gsp agonist | Sfp PPTase inh
(9) O=C(Nc1ccc(Cl)cc1)Nc1nnc(SCc2ccc(Cl)cc2)s1
 : 9.2% | -13.7 | 1.2 | 0.2% | -7.1 | 43.2% | 1.8%
(10) Cc1ccc(OCC(=O)Nn2c(C)nc3ccccc3c2=O)c(C(C)C)c1
 : ? | -0.8 | 2.1 | 0.7% | -13.3 | -3.7% | 11.8%
(11) O=C1C2CCCN2C(c2ccc(F)cc2)N1c1nccs1 (stereo not drawn)
 : 14.9% | 8.2 | 1.0 | -1.6% | -1.7 | 2.5% | ?
(12) CC(=O)c1ccc(NS(=O)(=O)Cc2ccc(Cl)cc2)cc1
 : -6.8% | -1.1 | 0.5 | -9.8% | 7.2 | -25.6% | 14.9%
(13) O=S(=O)(c1ccc(=S)[nH]c1)N1CCOCC1
 : 17.6% | -2.8 | . | 1.1% | 21.0 | 2.2% | .
(14) CCOC(=O)c1sc(N(Cc2ccccc2)C(=O)CSc2ncn[nH]2)nc1C
 : ? | 2.2 | 2.2 | 4.1% | -0.1 | -19.7% | 16.8%
(15) O=C1Nc2ccccc2C1(O)Cc1ccncc1 (stereo not drawn)
 : 1.5% | -25.8 | 2.7 | -6.6% | 25.7 | -34.3%[inhibitor] | 12.9%
(16) COc1cc(C2CC(=O)c3c([nH]c(C(=O)OCCOC(C)C)c3C)C2)cc(OC)c1OC (stereo not drawn)
 : ? | 6.0 | -2.2 | -3.7% | 28.0 | 3.8% | 3.7%
(17) Cc1cc(NC(=O)c2cc(-c3ccc(C)s3)nc3ccccc23)no1
 : -7.2% | -2.6 | -3.2 | 5.2% | 25.3 | 16.6% | 13.8%
(18) O=C(C1CCCCC1)N1CCN=C1SCc1cccc([N+](=O)[O-])c1
 : -3.5% | -0.6 | -1.5 | -2.0% | 32.5 | -4.7%[15.4 µM] | 4.7%
(19) CS(=O)(=O)c1ccc2nc(NC(=O)c3ccccc3)sc2c1
 : -10.8% | -1.6 | 2.8 | 1.3% | 2.4 | -0.8%[15.4 µM] | 15.1%
(20) O=C(c1cc(-c2ccc(Br)cc2)n[nH]1)N1CCN(C(=O)c2ccccc2Br)CC1
 : -20.8% | 2.6 | -0.2 | -1.7% | -5.9 | -22.2% | -0.7%

# Remaining list, next part
21) COc1ccc(C)cc1NC(=O)C(=O)NNC(=O)COc1ccc(Cl)cc1
22) Cc1cc(NC(=O)CCN2CCC(C)CC2)ccc1Br
23) COCCCNC(=O)C[C@H]1C[C@H](C(=O)N2CCCCC2)[C@@]2(CCc3ccccc3)c3[nH]c4cc(CCC(=O)N(C)C)ccc4c3CCN2C1=O
24) O=C(Nc1ccncc1)C1CC(=O)N(Cc2ccccc2)C1 (stereo not drawn)
25) CCNC(=S)NN(c1ccccc1)c1ccccc1
26) Cc1nn(CCCC(=O)NCc2ccccc2)c(C)c1[N+](=O)[O-]
27) CSc1ccccc1NC(=O)CN(C)C(=O)Cc1c[nH]c2ccccc12
28) C/C(=N/OC(=O)c1ccccc1Br)c1ccc(C)cc1
29) Cn1c(=O)c2c(nc(NCCCN3CCOCC3)n2Cc2ccc(Cl)cc2)n(C)c1=O
30) Cc1cc2c(c(=O)o1)C(CCC1CCCCC1)C(C#N)=C(N)O2 (stereo not drawn)
screen / no.,21,22,23,24,25,26,27,28,29,30
gsp antagonist,-4.2%,2.8%,1.2%,10.2%,15.2%,9.9%,7.3%,-11.5%,-4.5%,9.9%
TRPV1 PAM,-1.8,-2.3,.,.,-4.0,-0.9,4.1,-0.3,-3.3,-26.5
Menin-MLL FL inh,-2.6,-0.9,.,.,7.0,4.0,.,-0.9,4.5,?
ClpP mod,-2.2%,-1.3%,-4.1%,-5.0%,-1.8%,1.2%,-3.2%,-4.1%,-1.5%,.
TRPML1 inh,-0.1,14.1,-22.8,8.6,-9.7,-12.7,1.6,44.2,1.3,7.0
gsp agonist,?,29.9%,.,-10.9%,?,16.0%,0.7%,-22.6%[15.4 µM],?,-22.1%[15.4 µM]
Sfp PPTase inh,14.6%,-2.0%,.,.,-14.2%,7.7%,.,-0.5%,-11.5%,10.6%

# Entries of single compounds from above. Order of values: gsp antagonist, TRPV1 PAM, Menin-MLL FL inh, ClpP mod, TRPML1 inh, gsp agonist, Sfp PPTase inh
# Cc1sc(NC(=O)CN(C(=O)c2ccccc2F)C2CCCC2)c(C(N)=O)c1C in the list: -17.5%, 6.7, -4.5, 2.0%, -8.6, 16.3%[15.4 µM], 2.8%
# O=C(c1cc(-c2ccc(Br)cc2)n[nH]1)N1CCN(C(=O)c2ccccc2Br)CC1 in the list: -20.8%, 2.6, -0.2, -1.7%, -5.9, -22.2%, -0.7%
